Screening data deposited in PubChem BioAssay by several laboratories.
MT1-MMP act inh: inhibitors of human MT1-MMP activation; HT1080 RFP-PRO-GFP cells, GFP/RFP ratio fluorescence, overnight; percent of plate control window, DMSO zero; 360,000 tested, 0.061% active; P50281; GFP/RFP ratio change, % at 20 µM;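 active means GFP/RFP ratio change of at least 30% with cell ATP level not reduced by more than half and red fluorescence within 50% of control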; further: strong numbers were not always called active
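Assay system: HT1080 cells carrying an RFP-PRO-GFP reporter | Dosing: Single dose of 20 µM compound, 1% DMSO final | Incubation: Cells overnight before dosing, compound overnight, 37 °C, 5% CO2 | Evaluation: GFP/RFP fluorescence ratio | Control set: DMSO and RFP-L50D-GFP cell wells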
Yeast UUG start: yeast start codon fidelity modulation; S. cerevisiae UUG-firefly luciferase reporter, luminescence/redox ratio; activity score, % at 18.7 µM; 350,000 tested, 0.13% active; AID 602363;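 active means replicate mean at a twofold rise or more, about +100% in these data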;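 further: firefly luciferase made from a UUG start codon reports start codon fidelity; reporter light over untreated wells divided by growth signal over untreated wells; some hits fall short of that in this replicate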
Rce1 inh: blocks yeast Ras-converting enzyme; Q03530; yeast membranes, quenched prenylated peptide cleavage fluorescence; calls only; 290,000 tested, 0.27% active; AID 2563;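 active means fall in fluorescence gain of 50% or more versus controls, with final raw signal at or below 3038400; inconclusive means same 50% fall but final raw signal above 3038400; inactive means fall in fluorescence gain under 50%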;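 further: plate controls were neutral control wells for no effect and wells lacking membranes for full effect; tested at 10 µM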
Target sequence (Q03530 whole entry, looked up): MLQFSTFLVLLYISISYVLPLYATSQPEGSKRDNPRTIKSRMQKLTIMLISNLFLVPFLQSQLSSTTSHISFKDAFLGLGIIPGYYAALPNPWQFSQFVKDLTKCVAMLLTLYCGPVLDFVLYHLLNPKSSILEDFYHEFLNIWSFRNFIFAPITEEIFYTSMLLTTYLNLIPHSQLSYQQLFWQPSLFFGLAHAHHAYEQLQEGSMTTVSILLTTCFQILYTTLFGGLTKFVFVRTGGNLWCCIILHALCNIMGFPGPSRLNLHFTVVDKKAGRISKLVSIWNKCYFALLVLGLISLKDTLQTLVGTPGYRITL
CSC inhib: blocks cancer stem cells; cancer stem cell-like cells viability, luminescence; 300,000 tested, 1.1% active; inhibition, % at 7.5 µM;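 active means mean at 75% or more and at least half the replicates too; inconclusive means mean and replicates disagree; tested in HMLE shEcad cells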;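 further: 0% = median of negative and 100% = median of positive control wells; the first replicate is given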
PABP FP inh: PABP-poly(A) binding inhibition | PABP-poly(A) RNA binding, fluorescence polarization | inhibition, % at 35 µM | 290,000 tested, 1% active | AID 2014;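 active means 50% or more with normal probe brightness, or confirmed in later tests; inconclusive means above 50% with abnormal brightness, or retests that disagree; inactive means below 50% or failed in later tests; about a fifth of its hits are not listed in these tables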;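 further: calls also rest on retests at 20 µM and on dose response follow-up; controls were probe without protein and protein plus probe with vehicle; some compounds called inactive have numbers as strong as hits; many hits fall short of the cut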
Target sequence (P11940 whole entry, looked up): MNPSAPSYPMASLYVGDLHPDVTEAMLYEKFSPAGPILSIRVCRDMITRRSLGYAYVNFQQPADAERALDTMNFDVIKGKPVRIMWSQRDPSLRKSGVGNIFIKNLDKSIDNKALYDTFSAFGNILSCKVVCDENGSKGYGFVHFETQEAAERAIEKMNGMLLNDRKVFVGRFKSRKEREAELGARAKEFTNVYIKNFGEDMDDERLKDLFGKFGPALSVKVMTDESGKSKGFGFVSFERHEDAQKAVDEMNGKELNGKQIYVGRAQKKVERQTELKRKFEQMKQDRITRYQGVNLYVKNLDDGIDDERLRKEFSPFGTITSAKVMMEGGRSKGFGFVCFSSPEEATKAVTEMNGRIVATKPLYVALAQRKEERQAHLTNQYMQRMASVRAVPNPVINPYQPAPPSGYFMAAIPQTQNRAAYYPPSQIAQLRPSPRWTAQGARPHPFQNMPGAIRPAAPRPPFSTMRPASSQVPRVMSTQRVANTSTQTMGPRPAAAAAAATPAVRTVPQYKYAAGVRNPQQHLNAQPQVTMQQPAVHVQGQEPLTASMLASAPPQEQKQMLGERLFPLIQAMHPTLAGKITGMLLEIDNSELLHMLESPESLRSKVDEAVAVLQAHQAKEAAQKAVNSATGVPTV
HIV Env fusion: blocks HIV Env-driven cell-cell fusion. HeLa-JRFL Env/CEM21 cell fusion, luciferase. inhibition, % at 12.3 µM. 360,000 tested, 1.1% active;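 active means mean replicate inhibition score of at least 50 and every replicate individually at or above 50; inconclusive means only one of the two criteria met; inactive means mean below 50 and not all replicates reaching 50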;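 further: 0% = plate neutral controls and 100% = maraviroc near 300 nM; one replicate is shown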
eIF4H FP inh: inhibitors of RNA binding by human eIF4H; eIF4H fluorescence polarization binding assay; inhibition, % at 35 µM; 290,000 tested, 0.94% active;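 active means 50% or more with normal probe brightness, or confirmed in later tests; inconclusive means above 50% with abnormal brightness, or retests that disagree; inactive means below 50% or failed in later tests; about a fifth of its hits are not listed in these tables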;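 further: calls also rest on retests at 20 µM and on dose response follow-up; 0% = protein and probe with vehicle and 100% = probe without protein; strong numbers were not always called active; many hits fall short of the cut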
eIF4H FP inh retest: recorded beside eIF4H FP inh, whose call it bears; inhibition, %; compound at 20 µM; confirmation average;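 mean of two retest wells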
PABP FP inh retest: second read-out of PABP FP inh, no call of its own (marks repeat the call); inhibition, %; compound at 20 µM; confirmation repeats;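 mean of two retest wells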
MT1-MMP act inh RFP: also measured in MT1-MMP act inh; calls as there; RFP signal change, %; measured here: RFP expression control read;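 0 = vehicle wells; hits needed this value within 50% of zero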
The depositor's hits bear a star; i = inactive; ? = inconclusive; nt = not tested or not shown. Some of the compounds tested; count on the stated rates, not on these rows.

Preview, two compounds:
SMILES	MT1-MMP act inh	MT1-MMP act inh RFP	Yeast UUG start	Rce1 inh	CSC inhib	PABP FP inh	HIV Env fusion	eIF4H FP inh	others
O=C(CCCCCN1C(=O)c2cccc3cccc(c23)C1=O)NCc1cccnc1	0	-4	1	i	59	6	-4	0
Cc1ccccc1-c1n[nH]c(=S)n1/N=C/C=C/c1ccco1	-2	4	-22	nt	-3	41*	1	82*	eIF4H FP inh retest=95*;PABP FP inh retest=91*

The whole of this part, from the first entry:
SMILES	MT1-MMP act inh	MT1-MMP act inh RFP	Yeast UUG start	Rce1 inh	CSC inhib	PABP FP inh	HIV Env fusion	eIF4H FP inh	others
O=C(CCCCCN1C(=O)c2cccc3cccc(c23)C1=O)NCc1cccnc1	0	-4	1	i	59	6	-4	0
Cc1ccccc1-c1n[nH]c(=S)n1/N=C/C=C/c1ccco1	-2	4	-22	nt	-3	41*	1	82*	eIF4H FP inh retest=95*;PABP FP inh retest=91*
Cn1cc(Br)c(NS(=O)(=O)c2ccc(Cl)s2)n1	0	2	nt	i	5	-6	14	8
Cc1nnc(-c2ccc(Cl)cc2)nc1NCCN(C)C	3	4	nt	i	-7	-4	7	-11
CCCC(=O)N1CCOCC1c1cc(C(=O)Nc2ccccc2)no1 (stereo unspecified)	0	3	0	nt	nt	nt	-14	nt
CCCNC(=O)CCc1c(C)nc2nc(C)nn2c1C	4	3	nt	i	-11	15	21	-7
COc1ccc(CCNC(=O)c2ccc(=O)[nH]c2)cc1OC	1	1	-3	i	-10	3	-18	-1
COc1ccc(NC(=O)C(=O)N/N=C(\C)CC(=O)Nc2ccccn2)c(OC)c1	2	-1	nt	i	-8	3	2	-2
Cc1ccc(NC(=O)CCC(=O)c2cccs2)c(Br)c1	-3	1	-22	i	-10	-4	-65	-7
CN(C)CCOc1ccc(-c2c(-c3ccsc3)sc3ccccc23)cc1	-3	-4	-23	nt	104*	nt	34	nt
CCOC(=O)c1ccc(N2C(=O)c3n[nH]c(C)c3C2c2ccc(O)cc2)cc1 (stereo unspecified)	-2	0	-5	i	-12	-7	16	-10
O=C(CSc1n[nH]c(=O)n1Cc1ccccc1)Nc1ccc(N2CCOCC2)cc1	0	-11	4	nt	nt	nt	3	nt
CCCOc1ccc(N2CC(C(=O)Nc3ccc(N4CCOCC4)cc3)CC2=O)cc1 (stereo unspecified)	-4	4	-9	i	1	2	16	-8
Cc1cccc(C(=O)N/N=C/c2ccc3c(c2)OCO3)n1	7	4	-11	i	-9	-5	21	-8
O=C(c1cccs1)N1CCN(c2ncc(C(F)(F)F)cc2Cl)CC1	5	-3	-1	i	-7	-1	nt	-6
CC(=O)N1c2ccc(S(=O)(=O)NCC3CCC(C(=O)Nc4ccc(C)cn4)CC3)cc2CC1C (stereo unspecified)	-7	-28	8	i	-3	nt	10	nt
Cc1cc(C(=O)Nc2c(F)c(F)c(F)c(F)c2F)n(-c2ccccc2)n1	3	6	nt	i	0	-9	8	-4
CCCCc1nc(C(N)=O)c2[nH]c(=O)n(-c3ccccc3F)c2n1	-3	0	-4	i	-17	4	nt	56	eIF4H FP inh retest=0;PABP FP inh retest=8
Cc1ccccc1CSCC(Nc1ccc(C(=O)O)cc1[N+](=O)[O-])C(=O)O (stereo unspecified)	9	-1	-18	i	7	21	nt	10
Cc1ccc(O)c(CNc2cccc(C)n2)c1	10	4	-11	i	nt	5	11	-4
CC(C)(C)NC(=O)CN(C(=O)CS(=O)CC(=O)Nc1ccc(F)cc1)c1ccc2c(c1)OCCO2 (stereo unspecified)	1	6	nt	i	-3	-15	17	-5
CCc1cc2c(NCC3CCCO3)nc(C)nc2s1 (stereo unspecified)	-2	-16	-9	i	-4	17	nt	-3
CCn1c2ccccc2c2cc(NC(=O)CSc3nnc(-c4cccc(C)c4)o3)ccc21	-2	-4	nt	i	nt	-7	nt	-7
O=C(CN1CCCCCC1)N/N=C/c1cccc(Cl)c1Cl	2	1	-28	i	-13	20	nt	13
CCOc1ccccc1C(=O)N[C@H](C(=O)Nc1ccc(OC)c(S(=O)(=O)N2CCOCC2)c1)C(C)C	2	-1	nt	i	-18	15	1	6
CN1CCN(CCc2nc3cc(NC(=O)c4ccco4)ccc3n2C)CC1	-4	-1	-18	i	nt	2	2	-2
Cc1onc(-c2ccccc2)c1C(=O)OCc1nnc(-c2ccc([N+](=O)[O-])cc2)o1	3	-9	-11	nt	5	nt	60*	nt
CCC(C(=O)O/N=C(\N)c1ccccc1)c1ccccc1 (stereo unspecified)	-4	-1	-12	i	-5	-2	nt	4
S=C(Nc1ccccc1)Nc1ccc2ccccc2c1	5	6	-26	nt	nt	nt	-27	nt
CCC1CCC(N2CCN(c3cccc(OC)c3)CC2)CC1 (stereo unspecified)	2	0	-6	i	-9	21	6	0
Cc1ccc(N2CN(Cc3ccco3)CNC2=S)cc1	-3	5	nt	i	-7	5	-7	10
CCCn1c(SCC(=O)c2cc(C)ccc2C)n[nH]c1=O	7	6	-10	i	-2	-12	nt	-9
COc1ccc(OC)c(-c2csc(N(CC3CCCO3)C(=O)C3CCCCC3)n2)c1 (stereo unspecified)	-9	-3	nt	i	78*	-10	6	-8
N#Cc1cccc(NC(=O)CC2CCCC2)c1	-1	-1	-16	i	-15	1	6	5
CCOC(=O)C1=C(N)n2c(s/c(=C\c3ccncc3)c2=O)=C(C(=O)OCC)C1c1ccncc1 (stereo unspecified)	-6	-10	nt	i	nt	-5	18	2
O=C(Nc1ccccc1C(=O)O)c1ccccc1	1	0	-13	i	7	12	nt	49
Cc1cccc(C)c1-n1nnnc1C(c1ccccc1OC(F)(F)F)N1CCN(C/C=C/c2ccccc2)CC1 (stereo unspecified)	-7	-21	1	nt	nt	nt	15	nt
O=C(NC1CCN(C(=O)Nc2cccc(Cl)c2)CC1)c1ccccc1	-1	-2	-13	i	-7	-4	-5	-2
CCOC(=O)C1CCCCN1Cc1ccc(OC)c(OC)c1OC (stereo unspecified)	-2	3	-7	i	-13	18	-13	-1
Cn1c(=O)c2c(SCc3cccnc3)nc(C3CC3)nc2n(C)c1=O	-3	0	-17	i	2	-1	19	-2
CC(OC(=O)c1ccc([N+](=O)[O-])o1)C(=O)Nc1nc(-c2ccc(F)c(F)c2)cs1 (stereo unspecified)	4	-5	-2	nt	nt	nt	-105	nt
COc1ccc(Cl)cc1NC(=O)CN(C)C(=O)Cn1[nH]c(=O)c2ccccc2c1=O	0	0	-4	nt	nt	nt	6	nt
CCCCNS(=O)(=O)c1ccc(S(=O)(=O)N2CCC3(CC2)OCCO3)cc1	4	-3	nt	i	4	37	-11	3
Fc1cccc(CCN2C(=S)NC[C@@H]2Cc2ccccc2)c1	-1	-5	-17	i	17	-8	14	1
Cn1cccc1Cc1nnc(SCC(=O)Nc2ccc(Cl)cc2)n1-c1ccc(F)cc1	6	-2	-14	i	-8	-14	23	-15
COc1cc(/C=C/C(=O)OCC(=O)N2CC3(C)CC2CC(C)(C)C3)ccc1O (stereo unspecified)	5	-2	nt	i	16	-4	15	5
COc1ccccc1N1CCN(C(=O)c2ccccc2SCC(=O)N2CCCC2)CC1	0	0	-8	nt	nt	nt	7	nt
O=C(CN1CCc2ccccc2C1)Nc1cc(S(=O)(=O)N2CCOCC2)ccc1N1CCCC1	-4	1	-6	i	-7	2	nt	11
Cc1ccc(OCC(=O)NCc2ccco2)c([N+](=O)[O-])n1	4	1	nt	i	4	2	8	-14
O=C(COC(=O)/C=C/c1ccc2c(c1)OCO2)NC1CCS(=O)(=O)C1 (stereo unspecified)	0	6	-13	i	-8	6	2	-2
Cc1cccc(NCc2nc(-c3ccccc3)no2)c1	0	1	-5	i	17	-15	-24	-8
CCOC(=O)C1=C(C)NC(=O)NC1C1CC=CCC1 (stereo unspecified)	-6	-3	-8	i	-11	-8	40	-1
CC(C)(C)S(=O)N1Cc2cc(C(=O)NCC(F)(F)F)nc(-c3cccc(-c4cccc(F)c4)c3)c2[C@@H]1CCO (stereo partly specified)	-10	-12	-11	nt	nt	nt	-9	nt
CC(CCc1ccccc1)NCc1ccc(Cl)cc1Cl (stereo unspecified)	-2	-3	-10	i	28	0	?	3
CN(CC(=O)Nc1ccccc1Br)CC(=O)NC(c1ccccc1)c1ccccc1	-3	-1	-16	nt	nt	nt	12	nt
CCOC(=O)C1=NOC2COC3(CCN(c4ncccn4)CC3)OCC12 (stereo unspecified)	5	5	-4	i	nt	-14	16	-10
CC(C)(C)C(=O)Nc1ccc(N2CCN(C(=O)c3cccs3)CC2)cc1	5	2	-10	nt	nt	nt	9	nt
CCOC(=O)N1CCN(C(=O)CCCCCn2c(=S)[nH]c3cc4c(cc3c2=O)OCO4)CC1	-2	-3	-6	i	-3	-2	10	-2
Cc1cc(C(=O)N2CCC2(C)C(=O)NS(=O)(=O)c2cccc(Cl)c2)nn1C (stereo unspecified)	-1	5	-17	nt	nt	nt	i	nt
O=C(COC(=O)c1ccccc1C(=O)c1ccc(Cl)cc1)NCC1CCCO1 (stereo unspecified)	-1	-1	nt	i	-8	-6	10	1
Next section:
SMILES	MT1-MMP act inh	MT1-MMP act inh RFP	Yeast UUG start	Rce1 inh	CSC inhib	PABP FP inh	HIV Env fusion	eIF4H FP inh	others
CC1(C)C2CCC(CN)C1C2 (stereo unspecified)	-7	-3	-17	nt	nt	nt	47	nt
COc1cc(N=CC2=C(O)c3ccccc3C2=O)cc(OC)c1	0	0	-21	i	11	-6	-16	6
CCOc1cccc(-c2c(C(=O)N/N=C/c3ccsc3)nnn2-c2nonc2N)c1	-7	-2	-11	i	-26	6	3	14
Cc1cccc(-c2nc(C#N)c(NCc3ccco3)o2)c1	2	-4	-11	?	20	9	-45	-14
CCOc1c(Cl)cc(CNCC(O)c2ccccc2)cc1OC (stereo unspecified)	-3	1	nt	i	-8	-2	4	2
O=C(COc1ccc2ccc(=O)oc2c1)NC1CCN(Cc2ccccc2)CC1	2	2	-4	i	-3	-7	3	-4
CCc1ccc(Nc2nc(N)nc(CSc3nc4ccccc4s3)n2)cc1	-5	5	nt	i	?	4	-77	-15

Arranged by formula weight (low to high): some entries from above
SMILES	MT1-MMP act inh	MT1-MMP act inh RFP	Yeast UUG start	Rce1 inh	CSC inhib	PABP FP inh	HIV Env fusion	eIF4H FP inh	others
CC1(C)C2CCC(CN)C1C2 (stereo unspecified)	-7	-3	-17	nt	nt	nt	47	nt
COc1cc(N=CC2=C(O)c3ccccc3C2=O)cc(OC)c1	0	0	-21	i	11	-6	-16	6
CCOc1c(Cl)cc(CNCC(O)c2ccccc2)cc1OC (stereo unspecified)	-3	1	nt	i	-8	-2	4	2
CCOC(=O)C1=NOC2COC3(CCN(c4ncccn4)CC3)OCC12 (stereo unspecified)	5	5	-4	i	nt	-14	16	-10
CC(C)(C)C(=O)Nc1ccc(N2CCN(C(=O)c3cccs3)CC2)cc1	5	2	-10	nt	nt	nt	9	nt
CCc1ccc(Nc2nc(N)nc(CSc3nc4ccccc4s3)n2)cc1	-5	5	nt	i	?	4	-77	-15
O=C(COC(=O)c1ccccc1C(=O)c1ccc(Cl)cc1)NCC1CCCO1 (stereo unspecified)	-1	-1	nt	i	-8	-6	10	1
Cc1cc(C(=O)N2CCC2(C)C(=O)NS(=O)(=O)c2cccc(Cl)c2)nn1C (stereo unspecified)	-1	5	-17	nt	nt	nt	i	nt
CCOc1cccc(-c2c(C(=O)N/N=C/c3ccsc3)nnn2-c2nonc2N)c1	-7	-2	-11	i	-26	6	3	14
CN(CC(=O)Nc1ccccc1Br)CC(=O)NC(c1ccccc1)c1ccccc1	-3	-1	-16	nt	nt	nt	12	nt
